Assay outcomes from PubChem BioAssay.
gsp antag = antagonizes gsp, the McCune-Albright syndrome mutation | gsp-mutant cells, cAMP HTRF, 30 min; control for the full effect not named in the record | Potency, µM (highest dose often 76.9 µM), for the others: at the top dose activity change, negative = inhibition, most hits filed as inhibitors | 0.4% of 340,000 active; active = falling curve of any shape with a large fitted effect; inconclusive = falling curve, mostly with a smaller effect; inactive = flat or rising curve; cell line not stated here;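 further: intracellular cAMP measured with PDE inhibitor Ro 20-1724 present during compound exposure; potency means the concentration at half of the fitted maximal effect; on the % scale 0 is the no-effect control and ±100 the full control effect; nearly all actives have a fitted effect of over 65% in size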
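Cells in G418 medium, seeded 16-24 h, 37C; buffer exchange to DPBS + 1 mM CaCl2, 0.5 mM MgCl2, 0.05% BSA; cpds in DMSO + […] (300 uM stock), 30 min 37C; HTRF cAMP detection.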
PINK1 expr mod = PINK1 expression modulation. Potency, µM (top dose mostly 76.6 µM), inactives show top-dose activation (PINK1 increase), hits mostly activators. PINK1 immunofluorescence, high-content cytometry, 24 h. 0.2% of 410,000 active; active = well fitted activation curve with a large enough effect; inconclusive = small, poorly fitted or top-dose-only effect; inactive = flat fitted curve, though single readings scatter; cell line not stated here;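 further: potency means the concentration at half of the fitted maximal effect; % of control where 0% means no effect; nearly all actives have a fitted effect of over 65% in size; a mitochondrial uncoupler was the plate control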
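Compound titrations (5 concentrations, 24 h) on a stable cell line; DMSO and CCCP controls. Endpoint: fixed-cell PINK1 immunofluorescence with mitochondrial, cell and nuclear markers, scanned by microplate cytometer.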
Sfp inh = inhibitors of Bacillus subtilis Sfp phosphopantetheinyl transferase. Q9F4F7. 3.5% of 310,000 active. Potency, µM, without a hit: max response, negative = inhibition, hits mostly inhibitors. Biochemical Sfp PPTase activity, qHTS; active means well fitted inhibition curve with a large enough effect; inconclusive means small, poorly fitted or top-dose-only effect, or another doubt; inactive means no such curve, though single readings can be large or run the other way;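 further: the enzyme is Sfp with the accession as filed and its product quenches rhodamine fluorescence; potency means the concentration at half of the fitted maximal effect; 0% = enzyme reaction without inhibitor and -100% = no enzyme wells; top concentration of the series not given in the record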
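After 15 min at room temperature with compound, 15 nM Sfp received 5 uM rhodamine-CoA plus 12.5 uM BHQ-2-ybbR (50 mM Hepes pH 7.6, 10 mM MgCl2). Rate came from the fluorescence difference over 30 min, ex 525/em 598 nm.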
gsp agonist = agonists of gsp mutant (McCune-Albright syndrome) | 0.13% of 340,000 active | Potency, µM (doses to about 76.9 µM), for inactives: at the top dose activation (cAMP increase), actives largely listed as activators | gsp mutant cells, cAMP HTRF, 30 min; control for the full effect not named in the record | AID 624287; active = well fitted activation curve with a large enough effect; inconclusive = small, poorly fitted or top-dose-only effect, or another doubt; inactive = no such curve, though single readings can be large or run the other way; cell line not stated here;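 further: phosphodiesterase inhibitor Ro 20-1724 added with compounds to block cAMP breakdown; potency means the concentration at half of the fitted maximal effect; nearly all actives have a fitted effect of over 60% in size; about a fifth of the inactives were tested at one dose only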
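Cells in DMEM/10% FBS with G418 were pretreated with compounds in DMSO plus […] (300 uM stock) for 30 min at 37C. cAMP was measured by HTRF (cAMP-d2 plus anti-cAMP antibody-K) after 30 min at room temperature.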
D2 ag = human D2 receptor agonism in beta-arrestin assay; DiscoveRx PathHunter D2 beta-arrestin, luminescence, 90 min; 100% = 57 uM dopamine signal; activation, % (test concentration not listed); 0.084% of 360,000 active; in the data active = activation above about 40%; inconclusive = about 15% to 40%; inactive = below about 15%; further: compound concentration not given in the record; the text of the record calls up to 30% inactive
Target sequence (P14416 whole entry, looked up): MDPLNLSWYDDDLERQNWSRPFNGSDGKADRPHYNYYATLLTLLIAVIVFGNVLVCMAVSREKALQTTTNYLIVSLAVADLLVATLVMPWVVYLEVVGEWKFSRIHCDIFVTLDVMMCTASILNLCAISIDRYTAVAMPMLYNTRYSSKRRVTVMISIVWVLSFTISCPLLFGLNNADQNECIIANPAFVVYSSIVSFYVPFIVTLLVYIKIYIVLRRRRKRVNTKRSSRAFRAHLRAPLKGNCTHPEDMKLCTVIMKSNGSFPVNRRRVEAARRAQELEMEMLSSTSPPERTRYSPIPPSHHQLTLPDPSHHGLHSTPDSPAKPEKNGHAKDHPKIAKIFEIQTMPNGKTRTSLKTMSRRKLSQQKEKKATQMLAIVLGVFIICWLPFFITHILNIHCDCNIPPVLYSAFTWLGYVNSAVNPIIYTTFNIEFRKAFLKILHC
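DiscoveRx PathHunter D2 beta-arrestin cells (2,100/well) attached overnight, then compound-stimulated 90 min at 37 C in HBSS/10 mM HEPES/0.1% Tween-20 buffer; beta-galactosidase complementation read by luminescence after 1 h at ambient temperature. Dopamine 57 uM final (EC100) as control.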
Menin-MLL FL inh = displaces fluorescein MLL peptide from human menin | Fluorescence polarization, fluorescein-MLL peptide displacement from menin | FP activity change, % at 61.4 µM | 290,000 tested, under 10 active; inconclusive = falling polarisation curve, or a change in total fluorescence; inactive = total fluorescence flat and polarisation flat or rising; no compound was filed as active; the % refers to the polarisation; negative = inhibition;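 further: % of control where 0% means no effect; inhibitors lower the polarisation; unlabelled MLL peptide was the positive control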
ClpP mod = qHTS Assay for Activators of ClpP; purified B. subtilis ClpP, FRET peptide cleavage, 20 min; Potency, µM (series often up to 57.5 µM), for inactives: top-dose activity change, negative = active; 1.9% of 340,000 active; active = well fitted falling curve with a large enough effect; inconclusive = small, poorly fitted or top-dose-only effect; inactive = no such curve, though single readings can be large or run the other way; further: potency means the concentration at half of the fitted maximal effect; the source files actives as falling curves though it sought activators and does not explain the sign; nearly all actives have a fitted effect of over 65% in size; many hits overshoot -100%
Target sequence (P80244 whole entry, looked up): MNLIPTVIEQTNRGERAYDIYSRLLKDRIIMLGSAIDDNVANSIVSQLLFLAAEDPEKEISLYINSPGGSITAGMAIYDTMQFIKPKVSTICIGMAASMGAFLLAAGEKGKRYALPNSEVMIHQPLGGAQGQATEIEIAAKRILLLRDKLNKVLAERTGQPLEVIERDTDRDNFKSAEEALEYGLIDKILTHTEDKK
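Buffer: 100 mM Tris/HCl pH8, 100 mM KCl, 0.05% low protease BSA, 2.5% glycerol, 0.01% Tween-20. ClpP 10 microg/mL final; 20 min RT; delta FRET normalized to ADEP and DMSO controls.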
The depositor's hits bear a star; u = inconclusive; x = no result given; & = joins results of further samples; [ ] = remark or other dose.

Order of values – gsp antag	PINK1 expr mod	Sfp inh	gsp agonist	D2 ag	Menin-MLL FL inh	ClpP mod
COc1ccc(C2OCC3(O)C(c4ccc(OC)c(OC)c4)OCC23)cc1OC (centres undefined)
    0%	-0.2%	16%	-40%[inhibitor]	-2.5	0.1	-1.3%
Cc1cc(C)c(C)c(S(=O)(=O)N2CCN(C(=S)NCC3CCCO3)CC2)c1C (centres undefined)
    x	3.1%	4%	-7%[15.4 µM]	7.0	2.3	x
Cn1cccc1Cc1nnc(SCC(=O)NCc2ccccc2)n1-c1ccc(F)cc1
    -5%	2.1%	-7%	35%	-5.1	3.6	10%
COc1cc(/C(=C/c2ccccc2)c2ccccc2)c2c(c1)oc1ccccc12
    8%	11%	17%	x	-4.9	6.2	3.0%&4.6%
COc1ccc2c(c1)c(/C=N/Nc1nc3ccccc3[nH]1)c(C)n2C
    -21%	2.8%	11µM*	-57%[inhibitor]	14	9.8	x
Cc1cc(C)c(O)c(-c2n[nH]c3c2C(c2cccc(O)c2)N(Cc2ccco2)C3=O)c1 (centres undefined)
    -20%	-1.4%	-27%	-19%	5.5	7.5	0.1%
C/C(=N\O)C1CC(CC(=O)O)C1(C)C (centres undefined)
    -3%	-0.2%	14%	14%	-4.1	-0.2	-0.8%
Cc1ccc(S(=O)(=O)NN2C(=O)/C(=C/c3cccnc3)SC2=S)cc1
    -19%	4.0%	-6%	7%	-3.4	2.8	x
O=S(=O)(c1cccc(-c2cn3ccccc3n2)c1)N1CCCCC1
    u	1.0%	10%	-5%	6.4	x	-26%
Cc1ccc(Cn2ccc(NC(=O)c3nn(C)cc3Cl)n2)cc1
    -3%	-0.4%	-13%	9%	-2.8	3.3	91%
CCOc1ccccc1C1C(C(N)=O)=C(C)Nc2nc(CCCO)nn21 (centres undefined)
    7%	0.4%	-3%	-60%[inhibitor]	-4.1	1.9	-10%
CCCCC(CCC(=O)O)(C(=O)OCC)c1csc(N)n1 (centres undefined)
    3%	2.0%	10%	u	-2.7	6.0	-0.8%
O=C(NCC1CCCO1)c1cc(-c2ccncc2)nc2ccc(S(=O)(=O)N3CCOCC3)cc12 (centres undefined)
    -6%	0.2%	12%	1%	-5.0	2.8	-0.3%
COc1cc(Cl)ccc1OCc1cc(C(=O)N2CC[C@@H]3CCCC[C@H]3C2)no1
    -16%	26%	-14%	29%	1.1	6.3	x
CCOC(=O)CN(C(=O)Cn1nnc(-c2ccc(C)cc2)n1)C(CC)C(=O)NC1CCCC1 (centres undefined)
    -8%	15%[38.3 µM]	9%	3%	0.8	0.7	0.1%
CC(C)(C)c1ccc(S(=O)(=O)NCC(=O)N2CCCC2)cc1
    -3%	-1.8%	22%	21%[15.4 µM]	-2.2	0.7	-2.0%
Cc1[nH]c2ccc(-c3nnc(SCC(=O)NCc4ccco4)n3Cc3ccccc3)cc2c1C
    -13%	-1.8%	5%	10%	-0.3	1.1	u
O=C(CO/N=C/c1ccc(OC(F)F)cc1)NCc1ccco1
    1%	0.8%	13%	0%	-1.5	-2.2	0.0%
CCc1ccc(N(CC(=O)Nc2ccc(NC(C)=O)cc2)S(=O)(=O)c2ccccc2)cc1
    -32%	5.9%	4%	11%[15.4 µM]	-4.8	4.7	-2.2%
CCCCCCN1C[C@@H](n2cc(-c3ccc(F)cc3)nn2)[C@H](O)C[C@@H]1c1ccc(OC)cc1
    x	u	x	-1%	-7.8	x	-7.4%

Going on with the list:
Order of values – gsp antag	PINK1 expr mod	Sfp inh	gsp agonist	D2 ag	Menin-MLL FL inh	ClpP mod
Cn1c(NCCCN2CCOCC2)nc2c1c(=O)n(Cc1ccc(Cl)c(Cl)c1)c(=O)n2C
    0%	-0.8%[38.3 µM]	-5%	-6%	-1.0	1.9	-1.7%
Cn1c(NCCOc2ccccc2)nc2cc(-c3ccc(F)cc3)sc2c1=O
    x	u	x	x	3.2	x	-7.2%
CN(C)c1nc(NCc2ccccc2)nc(Oc2ccc(=O)[nH]n2)n1
    6%	-1.2%	-2%	-6%	-0.2	0.6	-1.2%
O=S(=O)(c1ccc(N2CCN(CCO)CC2)nc1)N1CCCCC1
    4%	0.7%	11%	u	-0.2	-1.6	-2.7%
CCOc1ccccc1NC(=S)NC(=O)C1CCCCC1
    -11%	11%	-2%	u	-2.1	3.1	0.8%
Nn1c(Cc2cccc3ccccc23)nnc1SCC(=O)NCC1CCCO1 (centres undefined)
    3%	-3.0%	x	-9%	-9.0	x	-2.6%
Cc1sc(N2C(=O)C3C4C=CC(C4)C3C2=O)c(C#N)c1C (centres undefined)
    10%	-1.3%	4%	1%	2.0	4.1	0.7%
O=C(O)CCCn1cc(NC(=O)c2cccc(F)c2)cn1
    4%	-0.6%	3%	2%[15.4 µM]	0.7	1.5	0.3%
Cc1ccccc1C(=O)N1CCC(C(=O)N(C)CC(=O)Nc2cccc(F)c2)CC1
    -18%	0.7%	14%	-55%[inhibitor]	-0.1	x	0.7%
Cc1c(C(=O)OCC(=O)N(C)Cc2ccc(Cl)cc2)oc2ccccc12
    9%	-0.4%	x	2%	-4.1	x	-17%
COc1ccccc1NC(=O)CSc1nnc(Cc2cccs2)n1C
    16%	-4.7%	x	-5%	-2.6	x	2.0%
Cc1nc2nc[nH]n2c(=O)c1CCOC(=O)c1c(F)cccc1F
    8%	-0.4%	17%	-16%[15.4 µM]	0.3	-0.8	x
CCc1cccc(NS(=O)(=O)c2ccc3c(c2)N(C)CCO3)c1
    -4%	2.7%	3%	4%	1.9	x	-1.1%
OCc1ccccc1SSc1ccccc1CO
    u	-1.1%	x	-2%[15.4 µM]	-6.4	x	x
CCOCCCNS(=O)(=O)c1ccc(NC(=O)c2ccc([N+](=O)[O-])cc2Cl)cc1
    -10%	-0.6%	-9%	3%[15.4 µM]	8.5	7.6	2.1%
O=C(NNC(=O)c1ccc([N+](=O)[O-])cc1C(=O)O)c1ccncc1
    -6%	1.8%	-5%	39%[15.4 µM]	0.2	-3.8	-0.6%
O=C(NCCN1C(=O)S/C(=C\c2cccnc2)C1=O)C1=NN(c2ccccc2)C(=O)CC1
    1%	-0.4%	-21%	-4%[15.4 µM]	-2.8	0.1	x
Cc1cc(C)cc(OCC(=O)Nc2ccccc2C(=O)NCc2ccco2)c1
    -6%	-0.1%	u	12%	-1.8	1.8	-19%
Cc1ccnc2nc(C(=O)NCCc3ccc(F)cc3)nn12
    -7%[15.4 µM]	2.0%	-2%	11%	-0.3	-0.3	8.6%
O=C(C[n+]1cccc2ccccc21)c1ccc(NC(=O)c2ccccc2)cc1
    7%	2.6%	5%	10%	-3.3	14	-2.0%

(more compounds)
Order of values – gsp antag	PINK1 expr mod	Sfp inh	gsp agonist	D2 ag	Menin-MLL FL inh	ClpP mod
COc1ccc(CCNC(=O)C2CCN(S(=O)(=O)c3ccc(C)cc3)CC2)cc1
    -15%	0.7%	14%	-15%	-1.3	-2.3	0.9%
O=C(OCC1OC(n2ccc(=O)[nH]c2=O)C(O)C1OC(=O)c1ccccc1)c1ccccc1 (centres undefined)
    -2%	0.3%	7%	7%	-0.8	-0.8	-0.5%
Cc1ccc(CCNC(=O)c2cc(S(=O)(=O)N3CCCC3)cn2C)cc1
    2%	-0.4%	u	7%	1.5	4.0	0.6%
COc1ccc(C(=O)OCC(=O)NCCCc2ccccc2)cc1[N+](=O)[O-]
    -23%	-0.6%	-9%	27%[15.4 µM]	-3.9	0.5	0.0%
CSc1ccc(CCNC(=O)CCc2nnc3ccc(N4CCOCC4)nn23)cc1
    2%	0.3%	11%	16µM*	-4.7	1.2	-3.3%
Cn1c(NNC(=O)CCC2CCCCC2)cc(=O)n(C)c1=O
    6%	-0.7%	2%	u	-5.1	1.0	-2.6%
COc1cc(NC(=O)c2cc(-c3cccnc3)nc3ccc(Br)cc23)cc(OC)c1
    -24%	11%	13%	6%[15.4 µM]	-1.6	20	-0.2%
O=C(CCC(=O)OCC(=O)c1ccccc1)Nc1cccc(Cl)c1
    12%	0.3%	-2%	-3%[15.4 µM]	-1.4	0.2	-0.8%
CN(C(=O)COC(=O)c1ccc(Cl)c(S(=O)(=O)NCc2ccccc2)c1)C1CCS(=O)(=O)C1 (centres undefined)
    -10%	-0.6%	x	1%	-2.0	x	1.5%
CCOC(=O)C1C(=O)NC(c2ccccc2)=NC1c1ccc(O)c(OC)c1 (centres undefined)
    5%	0.9%	9%	4%	0.4	3.2	x
CCOC(=O)c1ccc(NCc2cccnc2)cc1
    0%	-0.9%	6%	-30%	1.6	1.9	-4.3%
CC(Cc1ccccc1)NC(=O)CCNNC(=O)c1ccncc1 (centres undefined)
    x	0.3%	x	-19%	-5.7	x	1.2%
CCOc1ccccc1NC(=O)c1csc(C)c1C
    -26%	1.9%	4%	19%	-4.6	0.0	0.1%
O=C(c1cccc(Cl)c1)C1CCCN(S(=O)(=O)c2ccccc2)C1 (centres undefined)
    -14%	0.0%	25%	10%	0.2	x	0.2%

3 compounds from above, arranged by molecular weight, highest first.
Order of values – gsp antag	PINK1 expr mod	Sfp inh	gsp agonist	D2 ag	Menin-MLL FL inh	ClpP mod
CN(C(=O)COC(=O)c1ccc(Cl)c(S(=O)(=O)NCc2ccccc2)c1)C1CCS(=O)(=O)C1 (centres undefined)
    -10%	-0.6%	x	1%	-2.0	x	1.5%
CC(Cc1ccccc1)NC(=O)CCNNC(=O)c1ccncc1 (centres undefined)
    x	0.3%	x	-19%	-5.7	x	1.2%
Cn1c(NNC(=O)CCC2CCCCC2)cc(=O)n(C)c1=O
    6%	-0.7%	2%	u	-5.1	1.0	-2.6%
